Source: PubChem
OX1R antagonist = human HCRTR1 antagonism | inhibition, % at 5 µM | AID 434989 | 0.43% of 330,000 active | CHO/OX1R cells, Fluo-8 calcium fluorescence, orexin A;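 active means inhibition above its plate's threshold, mean inhibition of all tested compounds on the plate plus 3 SD, cut at about 37% in these data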;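 further: 0% = orexin A challenge wells and 100% = SB-334867-A antagonist wells; not every result past the cut was called active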
Target sequence (O43613 whole entry, looked up): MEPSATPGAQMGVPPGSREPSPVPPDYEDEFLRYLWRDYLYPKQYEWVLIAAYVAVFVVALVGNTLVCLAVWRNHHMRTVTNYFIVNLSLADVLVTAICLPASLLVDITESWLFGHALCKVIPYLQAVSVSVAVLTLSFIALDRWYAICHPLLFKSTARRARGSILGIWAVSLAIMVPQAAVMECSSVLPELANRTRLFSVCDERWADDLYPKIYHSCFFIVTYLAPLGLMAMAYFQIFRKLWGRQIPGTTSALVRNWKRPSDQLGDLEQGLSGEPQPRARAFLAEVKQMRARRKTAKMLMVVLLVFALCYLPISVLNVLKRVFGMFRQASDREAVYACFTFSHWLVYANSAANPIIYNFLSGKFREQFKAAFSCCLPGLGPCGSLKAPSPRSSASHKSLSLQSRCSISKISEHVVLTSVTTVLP
* hit, by the source's call. The list is partial; most or all hits stand in other tables.

smiles,OX1R antagonist
O=C(CS(=O)(=O)c1cn(Cc2cccc(F)c2)c2ccccc12)N1CCCCC1,-17
CCN(CC)CC#CCC(OC)(c1ccccc1)c1ccccc1,-26
CCN1C(=O)[C@H]2[C@@H](c3ccc(Cl)cc3)N3C(=O)CN(CC4CC4)C(=O)[C@@]3(Cc3ccccc3)[C@H]2C1=O,-25
CC1=C(C(=O)Nc2ccc(F)c(F)c2)C(c2cccs2)NC(=S)N1 (configuration not stated),-1
O=C(NCC1OCCc2ccccc21)c1cc(COc2c(F)cccc2F)on1 (configuration not stated),-12
CC1CCN(C(=O)c2cc(-c3ccco3)on2)CC1,-3
Cc1ccc(NC(=O)COC(=O)/C=C/c2ccccc2)cc1S(=O)(=O)N1CCOCC1,-23
O=C(N/N=C\c1ccc(-c2ccc(Cl)c(Cl)c2)o1)C(=O)N1CCCC1,-13
COc1ccc(CN(Cc2ccc(OC)cc2)S(=O)(=O)c2ccc(-n3cnnn3)c(C)c2)cc1,21
Cn1c(=O)c2c(nc(OCCc3ccccc3)n2C)n(C)c1=O,-6
O=C(c1ccccc1NS(=O)(=O)c1ccc(F)cc1)N1CCCCC1,-1
Cc1c(/C=C(\C#N)c2nn(-c3ccccc3)c(N)c2C#N)c2ccccc2n1Cc1ccc(F)cc1,-13
COC(=O)c1ccc(S(=O)(=O)NCCc2ccccc2OC)n1C,-11
COc1ccc(N(C(=O)c2ccco2)S(=O)(=O)c2cc(OC)ccc2OC)cc1,-13
O=C(Nc1nc(-c2ccc(F)c(F)c2)cs1)c1cnccn1,-7
NC(=S)N/N=C/c1ccc(C(F)(F)F)cc1,1
COc1ccccc1C(=O)NNC(=O)c1ccc(F)cc1,-14
Nc1nnc(Cc2ccc(Cl)c(Cl)c2)s1,-17
Cn1c(=O)c2c(nc(SCC(=O)NCC3CCCO3)n2C)n(C)c1=O (configuration not stated),-14
O=C(c1ccccc1)N1CCN(CC#Cc2ccccc2)CC1,-24
Cc1cc(C)n(C(=O)CCNC(=O)c2ccccc2Br)n1,-21
COc1ccc(OC)c(/C=C/C(=O)OCC(=O)Nc2cccc(C(C)=O)c2)c1,-16
CCN(CC)S(=O)(=O)c1cccc(NC(=O)c2ccccc2Br)c1,-26
COC(=O)Nc1ccc(S(=O)(=O)N2CCCC(C(=O)N3CCCCC3)C2)cc1 (configuration not stated),-21
O=C(CSc1nnc(CNC(=O)c2ccco2)o1)Nc1cccc(Cl)c1,1
COCC(=O)N1CCCC(C(=O)c2ccc(C(F)(F)F)cc2)C1 (configuration not stated),-15
CCOc1ccc(NC(=O)c2ccc(CC)s2)c([N+](=O)[O-])c1,-8
CCOc1ccc(C(C)C)cc1S(=O)(=O)N1CCOCC1,-13
CCCCNC(=O)CSc1nc(Cc2ccccc2)nc2ccccc12,-32
O=C(CSc1ccc(-c2ccccc2)nn1)NC1CCCCC1,-18
Cc1cc(N(CC(=O)NC2CC2)S(C)(=O)=O)ccc1Br,3
Cc1ccc(Nc2nc(N3CCOCC3)nc(N3CCOCC3)n2)cc1,-29
Cc1ccsc1C(=O)NN=C1CCCCCC1,-22
COc1ccc(NC(=O)C2Cc3ccccc3CN2C(=O)c2ccccc2)cn1 (configuration not stated),-18
Cc1ccc(-c2nc(CS(=O)CC(=O)NCc3ccc(F)cc3)c(C)o2)cc1 (configuration not stated),-28
COc1cc(Cl)c(C)cc1NC(=O)Cn1c(NCCO)nc2ccccc21,-3
O=C(CSc1ccc(C(F)(F)F)cn1)Nc1ccccc1,-6
CC1=CC(C)(C)Nc2ccc(OC(=O)C(C)N3C(=O)c4ccccc4C3=O)cc21 (configuration not stated),-21
CCCc1nc(NCc2ccncc2)c2nnn(Cc3ccccc3F)c2n1,-22
CC(C)c1ccc(CNc2nnnn2C)cc1,-1
CC1=NN(c2ccccc2)C(=O)C1/C=C1\NC(=S)NC1=O (configuration not stated),-1
CCCCn1c(N)c(N(CCOC)C(=O)C(C)Oc2ccc(Cl)cc2)c(=O)[nH]c1=O (configuration not stated),-10
CSc1ncc(Cl)c(C(=O)Nc2cccnc2)n1,3
C/C(=N/NC(=O)c1cc(-c2cccc([N+](=O)[O-])c2)n[nH]1)c1cccc(O)c1,-7
Cc1ccc(C2c3[nH]c4ccccc4c3C[C@H]3C(=O)N(c4ccccc4C(=O)N4CCC[C@H]4C(=O)O)C(=O)N23)cc1 (some centres not stated),5
COCCNC(=O)c1ccccc1N(Cc1ccccc1)S(=O)(=O)c1ccccc1,-31
CSCc1cc(N2CCOCC2)nc(SCc2ccc(Cl)c(Cl)c2)n1,16
CC(C)c1ccc(NC(=S)NN2CCOCC2)cc1,7
CCOC(=O)c1nn(-c2ccccc2)c(=O)cc1SC1CCCCC1,-27
O=C(NCCN1CCOCC1)c1ccc(CS(=O)(=O)c2c(Cl)cccc2Cl)o1,-6

New compounds follow:
smiles,OX1R antagonist
Cc1ccc(S(=O)(=O)N2CCOCC2)cc1NC(=O)CSc1ncccn1,-9
O=C1NCCCC1C(=O)N1CCN(C(c2ccccc2)c2ccccc2)CC1 (configuration not stated),-36
Cc1c(OCc2ccccc2)cccc1OCc1ccccc1,-36
Cc1nc(SCC(=O)NCCc2ccccc2)n[nH]1,-2
COc1ccccc1N1CCN(C(C)C(=O)Nc2ccc(S(=O)(=O)N3CCOCC3)cc2)CC1 (configuration not stated),-10
CN1[C@@H](CC(=O)c2ccccc2)CCC[C@H]1C[C@H](O)c1ccccc1,-48
CCN(CC)c1ccc(S(=O)(=O)N2CCOCC2)cc1NC(=O)CN1CCc2ccccc2C1,-24
c1ccc2c(c1)nc(CN1CCOCC1)n1c3ccccc3nc21,-17
COc1ccc(OC)c(S(=O)(=O)N2CCN(C(=O)c3ccco3)CC2)c1,-17
CC(=O)Nc1ccccc1C(=O)N1CCc2ccccc21,-19
CCN(CC)S(=O)(=O)c1cccc(NC(=O)COC(=O)C2COc3ccccc3O2)c1 (configuration not stated),-15
Nc1nonc1-n1nnc(C(=O)N/N=C/c2ccccc2)c1CSc1ccccc1,-1
CCc1ccccc1Nc1nc2ccccc2n1C,4
N#CC1=C(N)N(c2ncn[nH]2)C2=C(C(=O)CCC2)C1c1ccccc1 (configuration not stated),7
Cc1nnsc1C(=O)N1CCC(C(=O)c2ccccc2)CC1,-8
O=C(CSc1nccc2ccccc12)N1CCN(Cc2ccc3c(c2)OCO3)CC1,-25
CC(=O)c1ccc(S(=O)(=O)N(C)CCCC(=O)N(C)Cc2ccccc2F)cc1,0
COc1ccc(S(=O)(=O)N2CCCCCC2)cc1,-10
CC(=O)Nc1cccc(Oc2ccc3c(c2)C(=O)NC3=O)c1,-10
C/C(=N\Nc1cccc2cccnc12)c1ccc(N)cc1,-17
COc1ccc(CNC(=O)C2CCC(CNS(=O)(=O)c3cccc4nsnc34)CC2)cc1 (configuration not stated),-19
CCOC(=O)N1CCN(c2cc3[nH]c(=S)[nH]c3cc2F)CC1,-9
CC1CCN(c2ccc([N+](=O)[O-])cc2C(=O)O)CC1,-10
CC(C)OCCCn1c(=S)[nH]c2ccc(N3CCOCC3)cc2c1=O,1
CCOc1cc(CN2CCCCC2)ccc1OC,-17
CCOC(=O)c1ccc(N2C(=O)CC(N3CCOCC3)C2=O)cc1 (configuration not stated),13
CC(C)Oc1ccc(CCc2nnc(SCC(=O)O)n2-c2ccccc2)cc1,5
COc1ccc(N=C2C(=Nc3ccc(OC)cc3)N(c3ccc(OC)cc3)C(=S)N2C)cc1,-21
Cc1cnc(C(=O)Nc2ccc(C(C)C)cc2)cn1,6
O=C(C1CC(=O)N(c2ccccc2)C1)N1CCN(C2=NS(=O)(=O)c3ccccc32)CC1 (configuration not stated),-1
O=S1(=O)N=CN(Cc2cccc(F)c2)c2ccccc21,-19
O=C(O)/C=C/c1cn(-c2ccccc2)nc1-c1ccc2c(c1)OCCO2,-21
CN1c2ccccc2N(C)C1(C)c1cccc2ccccc12,4
O=C(NNc1c(Cl)cccc1Cl)c1cccs1,-26
N#Cc1cc([N+](=O)[O-])ccc1Oc1cccc(/C=N/NC(=O)c2ccc(Cl)cc2)c1,-23
Cc1nc2cc(-c3cccs3)[nH]n2c(=O)c1C,7
COC(=O)c1cccc(N(C(=O)c2ccco2)C(C(=O)NC2CCCC2)c2ccc(N3CCOCC3)cc2)c1 (configuration not stated),-6
Cc1cccc(NC(=O)CNCC(=O)Nc2cccc(C)c2C)c1C,-23
COCCN(C(=O)COC(=O)Cc1cccc2ccccc12)c1c(N)n(Cc2ccccc2)c(=O)[nH]c1=O,-7
Cc1nn(C)c(C)c1S(=O)(=O)N(CC(=O)NCCN1CCOCC1)c1ccc(C(C)C)cc1,-25
Cc1cccc(NC(=O)CCSc2nnc(Cc3ccccc3)o2)c1,-10
Cc1ccc(C)c(N2CCN(C(=O)CCCn3c(=S)[nH]c4cc5c(cc4c3=O)OCO5)CC2)c1,-25
Clc1cccc(Cl)c1COc1ccccn1,3
CCOC(=O)COc1ccc2c(=O)c(-c3ccc(OC)c(OC)c3)c(C(=O)OCC)oc2c1,-17
O=C(NCc1ccccn1)Nc1ccccc1Cl,-15
CC(C)c1ccc2nc(NC(=O)C3CC3)sc2c1,-18
CC(C)c1ccc(NC(=O)CC2Oc3ccccc3NC2=O)cc1 (configuration not stated),-15
CCC(c1nnnn1CC1CCCO1)N(CCCO)Cc1cc2cccc(C)c2[nH]c1=O (configuration not stated),2
CC(=O)OC(C(=O)NC1CCCCC1)c1ccccc1 (configuration not stated),-11
CC(=O)N1CCN(C(=O)c2cc(S(=O)(=O)N(C)c3ccc(F)cc3)ccc2Cl)CC1,-13

Filtered by structure: those above containing a thiophene ring, fused or not (five)
smiles,OX1R antagonist
CC1=C(C(=O)Nc2ccc(F)c(F)c2)C(c2cccs2)NC(=S)N1 (configuration not stated),-1
CCOc1ccc(NC(=O)c2ccc(CC)s2)c([N+](=O)[O-])c1,-8
Cc1ccsc1C(=O)NN=C1CCCCCC1,-22
O=C(NNc1c(Cl)cccc1Cl)c1cccs1,-26
Cc1nc2cc(-c3cccs3)[nH]n2c(=O)c1C,7

Remaining list, next part:
smiles,OX1R antagonist
Cc1ccc(C2(C)CC(C)(C)N(C(=O)CSc3nnc(C)s3)c3ccccc32)cc1 (configuration not stated),-29
CC(=O)C1=C(C)NC(=O)NC1c1cc(Br)ccc1OCC(N)=O (configuration not stated),-5
CCOCCCNC(=O)C(Cc1ccccc1)NC(=O)c1ccco1 (configuration not stated),-5
CC(=O)c1ccc(-c2nc3ccccc3n2C)o1,-20
CCOC(=O)c1ccc(NC(=O)C2COc3ccccc3O2)cc1 (configuration not stated),-12
Cc1ccc(CNC(=O)CCCn2nc(C)c3c(C)n(-c4ccccc4)nc3c2=O)cc1,-25
CC(NC(=O)Nn1cnnc1)(C(F)(F)F)C(F)(F)F,-5
Nc1nc(Nc2cccc(C(F)(F)F)c2)nc(C(F)(F)F)n1,-2
Cn1nc(C(=O)Nc2c(-c3ccccc3)nc3sccn23)c2ccccc2c1=O,-36
CCOC(=O)C(=O)C1=C(N2CCOCC2)/C(=C\c2cccc([N+](=O)[O-])c2)CC1,-18
NC(=O)c1c(NC(=O)CN2CCOCC2)sc2c1CCC2,-10
CC1CCN(C(=S)NC(=O)C2CCCCC2)CC1,-20
CCC(C)n1c(S(=O)(=O)O)nc2ccccc21 (configuration not stated),-4
O=c1ccn(CCc2c[nH]c3ccccc23)c2c1CCCC2,-7
Nc1cc2c(cc1[N+](=O)[O-])OCO2,-11
Cc1ccccc1-c1noc(C2CCCCC2)n1,-9
Cc1cc(NC(=O)CSc2nc(-c3ccccc3)c(C#N)c(=O)[nH]2)no1,-12
COc1ccccc1NC(=O)C1CCC(CNc2c(N3CCCCC3)c(=O)c2=O)CC1 (configuration not stated),-27
O=C(CCC(=O)N1CCOCC1)Nc1nnc(C2CCCCC2)s1,-24
COC(=O)c1ccc(Nc2c([N+](=O)[O-])c(=O)oc3ccccc23)cc1,-23
CC(Sc1nnc(CC(=O)Nc2ccccc2F)n1C)C(=O)Nc1nccs1 (configuration not stated),-18
CCN(c1cccc(C)c1)S(=O)(=O)c1ccc(-n2cccn2)cc1,10
OCCC1CN(Cc2nc(-c3ccccc3)cs2)CCN1C1CCCC1 (configuration not stated),-33
CCOC(=O)C(NC(C)=O)C(=O)O (configuration not stated),-11
CCc1nnc(NC(=O)CSc2nc3ccc(OC)cc3[nH]2)s1,-14

Part of the list above in order of count of non-hydrogen atoms, low to high:
smiles,OX1R antagonist
Nc1cc2c(cc1[N+](=O)[O-])OCO2,-11
CCC(C)n1c(S(=O)(=O)O)nc2ccccc21 (configuration not stated),-4
CCOC(=O)c1ccc(NC(=O)C2COc3ccccc3O2)cc1 (configuration not stated),-12

(next part)
smiles,OX1R antagonist
CCc1nc(C#N)c(N2CCOCC2)o1,-2
OCc1cn(-c2ccccc2)nc1-c1cccnc1,-25
O=C(CN1CCc2ccccc21)NC(=O)NC1CCCCC1,-27
COC(=O)CCC(=O)Nc1cccc(Br)c1,-15
COc1ccc(NC(=O)Nc2nnc(N3CCC(C)CC3)s2)cc1OC,-33
COc1nc(Nc2ccc([N+](=O)[O-])cc2)nc(NC2CCCCC2)n1,-34
Cc1ccc2cc(COC(=O)c3ccncc3)c(=O)[nH]c2c1,-14
O=C(NCc1ccccn1)c1nc(Cn2ccc([N+](=O)[O-])n2)no1,-22
CCOC(=O)C1=C(C)NC(=O)CC1c1ccccc1OC (configuration not stated),-29
